StopGo reporter: FMDV 2A StopGo reporter, luciferase signal; human cells with a luciferase reporter of 2A StopGo recoding; control for the full effect not named in the record; Potency, µM (series often up to 57.9 µM), for the others: at the top dose signal change, negative = less light; actives 1.2% (n = 410,000); AID 1159524; active = well fitted falling curve with a large enough effect; inconclusive = small, poorly fitted or top-dose-only effect; inactive = no such curve, though single readings can be large or run the other way; tested in HEK293T cells; also: nearly all actives have a fitted effect of over 45% in size; luciferase light after 4 h
RE007 growth inh: less growth of the S. pombe RE007 Vpr strain. S. pombe RE007 Vpr strain, BacTiter-Glo ATP luminescence, 24 h; control for the full effect not named in the record. Potency, µM (doses to about 92.2 µM), for inactives: top-dose activity change, negative = less growth. actives 0.21% (n = 360,000). AID 651644; active = well fitted falling curve with a large enough effect; inconclusive = small, poorly fitted or top-dose-only effect; inactive = no such curve, though single readings can be large or run the other way;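 also: nearly all actives have a fitted effect of over 50% in size; the assay follows cell death caused by Vpr and the record does not say whether a fall means rescue or toxicity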
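Fission yeast RE007 carrying one integrated HIV-1 vpr copy, seeded at OD 0.01 in PMG+AL medium with 23 nL pinned compound. Grown 24 h at 30 degrees; viability read by BacTiter-Glo luminescence after 5 min.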
* = called active by the depositor; u = inconclusive; [ ] = remark or other dose. % is scaled to controls: 0 for no effect and ±100 for the full control effect; potency is read from the fitted curve at half-maximal effect.

smiles	StopGo reporter	RE007 growth inh
COc1ccc(C(=O)N/N=C/c2ccc(N(C)c3ccccc3)cc2)cc1	32µM*	-18%
COc1ccc(NC(=O)C2(C)CCN2C(=O)c2ccccc2CCc2ccccc2)cc1OC (stereo not drawn)	u	-21%
C[C@@H]1CN([C@@H](C)CO)C(=O)c2ccccc2-c2ccccc2CO[C@@H]1CN(C)S(=O)(=O)c1ccc(C(F)(F)F)cc1	u	6%
CC1(C(=O)Nc2ccc3[nH]ncc3c2)CCN1C(=O)C1(c2ccccc2)CC1 (stereo not drawn)	-16%	10%
O=C(c1ccco1)N1CCN(c2ncnc3scc(-c4ccc(Cl)cc4)c23)CC1	u	4%
COC(=O)C1=C(C(=O)OC)[C@@H]2N(C)c3ccc(OC)cc3[C@@]23C[C@@H](C(=O)OC)N(C(=O)CC(C)C)C3=N1	-6%	1%
Nc1ncnc2c1ncn2[C@@H]1O[C@H](C(=O)N2CCCN(Cc3ccccc3F)CC2)[C@@H](O)[C@H]1O	-15%	9%
CCN(CC)C(=O)c1cccc(-c2csc(C(NC(C)=O)c3cccc(OC)c3)n2)c1 (stereo not drawn)	-5%	-6%
CC(C)Oc1ccc(F)cc1-c1cc(C(=O)NCc2ccc(C(F)(F)F)cc2)[nH]n1	-16%	10%
CC1(C)CC(=O)C=C(c2ccc(-c3ccc(S(C)(=O)=O)cc3)cc2)C1=O	8%	-11%
CCOC(=O)[C@]12CCCC=C1N(Cc1ccc(Cl)cc1Cl)C(=O)[C@H](CC(=O)NCC1CCCCC1)C2	38%[activator]	0%
O=C(CCNS(=O)(=O)c1ccccc1)OCc1ccc([N+](=O)[O-])cc1	-20%	6%
O=S1(=O)CC(O)C(O)CS1 (stereo not drawn)	0%	0%
Cc1ccc(S(=O)(=O)NC(=O)C2(C)CCN2C(=O)C2(c3ccc(Cl)cc3)CC2)cc1 (stereo not drawn)	32%[activator]	19%
CC(=O)c1ccc(-c2cccc3nccn23)cc1	-8%	-14%
C=C1C(=O)[C@]23C[C@H]1CCC2[C@@]1(C)C(C[C@@H]3O)[C@](C)(C(=O)OC)CC[C@@H]1O (stereo partly drawn)	20µM*	u
CCC/C=C/c1ccc(CN2C(C)C(=O)N(Cc3cn(CC4CCCCC4)nn3)CCS2(=O)=O)cc1 (stereo not drawn)	-29%	-4%
O=C(C1CCCCC1)N1C[C@H](n2cc(-c3ccc(F)cc3)nn2)[C@@H](O)C[C@@H]1c1ccc(Cl)cc1	-29%	-2%
COCCNc1oc(/C=C/c2cccs2)nc1S(=O)(=O)c1ccccc1	61%[activator]	1%
COc1cc(C(=O)NCC(c2cccs2)N2CCOCC2)ccc1OCc1ccccc1 (stereo not drawn)	-22%	-6%
Nc1ncnc2c1ncn2[C@@H]1O[C@H](CNC(=O)[C@@H](N)Cc2ccc(C(=O)c3ccccc3)cc2)[C@@H](O)[C@H]1O	-25%	-11%
Cc1cn(CC(=O)NCC(C)c2ccccc2)c(=O)[nH]c1=O (stereo not drawn)	-16%	-13%
Cc1ccc2cccc(CC(=O)NN)c2c1	-5%	0%
CCc1nc2ccc(C(=O)Nc3ccc(Cl)c(Cl)c3)cn2c1N(C)Cc1ccc(OC)cc1	7%	-29%

Copied from the list:
For StopGo reporter, Cc1cn(CC(=O)NCC(C)c2ccccc2)c(=O)[nH]c1=O (stereo not drawn) has the entry -16%
For RE007 growth inh, Cc1ccc2cccc(CC(=O)NN)c2c1 has the entry 0%
For StopGo reporter, Cc1ccc(S(=O)(=O)NC(=O)C2(C)CCN2C(=O)C2(c3ccc(Cl)cc3)CC2)cc1 (stereo not drawn) has the entry 32%[activator]

Remaining list, next part
smiles	StopGo reporter	RE007 growth inh
CC(C)(C)Cc1c(-c2ccc(Br)cc2)nc2ccc(Cl)cn12	-8%	8%
Cc1ccc(S(=O)(=O)N2C[C@H]3[C@H]4C(=O)N(c5ccccc5)C(=O)[C@H]4CC(=O)[C@H]3[C@@H]2c2ccc(Cl)cc2)cc1	-12%	-5%
CCC(c1nc2ccccc2[nH]1)n1c(=O)c(-c2ccccc2)nc2ccccc21 (stereo not drawn)	-11%	-7%
COc1ccc(CN(C)C(=O)c2cc(-c3ccccc3)nc3ccc(C)cc23)c(OC)c1	0%	-11%
CC1(C(=O)NCCC#N)CCN1C(=O)C1(c2ccccc2)CC1 (stereo not drawn)	-12%	29%
CCCCC[C@@H](C)N1C[C@@H](COCc2ccccc2)Oc2cc(N3CC[C@H](N(C)C)C3)ccc2S1(=O)=O	-8%	13%
c1ccc(-c2cc3nc(NCC4CC4)nc(NCC4CCCCC4)c3s2)cc1	u	-1%
CC(C)N1C(=O)c2ccccc2NC(=O)C1C(=O)NCc1ccccc1 (stereo not drawn)	0%	13%
CN(CC(=O)Nc1ccc(Cl)c(Cl)c1)CC(=O)N1CCc2ccccc21	-12%	-17%
C=CCCC(=O)N1C[C@H]2CON(C)[C@H]2C[C@H]1c1cccc(N2CCOCC2)c1	2%	10%
CC(C)(C)OC(=O)N(Cc1ccccc1)Cc1ccccc1OCc1ccc(NC(=O)C2CCC2)cc1	-28%	-5%
Cc1ccccc1-c1cnc(C(O)c2cc(Cl)cc(Cl)c2)[nH]1 (stereo not drawn)	19%	-1%

Brought forward from above: 2 entries, then new ones.
smiles	StopGo reporter	RE007 growth inh
CC(C)(C)OC(=O)N(Cc1ccccc1)Cc1ccccc1OCc1ccc(NC(=O)C2CCC2)cc1	-28%	-5%
Cc1ccccc1-c1cnc(C(O)c2cc(Cl)cc(Cl)c2)[nH]1 (stereo not drawn)	19%	-1%
CCN(C(=O)COC(=O)c1cccc(S(=O)(=O)N(C)C)c1)c1c(N)n(Cc2ccccc2)c(=O)[nH]c1=O	3%	8%
CC(CNC1CCCCC1)OC(=O)c1ccccc1 (stereo not drawn)	-21%	-13%[18.4 µM]
COc1cc(NS(=O)(=O)c2cc(NC(C)=O)ccc2OC)c(OC)cc1NC(=O)c1ccccc1	27%	-3%
COc1ccc(C2CC(c3cccc(OC)c3)=NN2c2ccc(S(N)(=O)=O)cc2)cc1 (stereo not drawn)	0%	6%
CCOC(=O)[C@]12CCCC=C1N(Cc1cccc3ccccc13)C(=O)[C@H](CC(=O)N1CCCC1)C2	-14%	-8%
COc1cc(/C=C/CNC[C@H]2O[C@@H](n3cnc4c(=O)[nH]c(N)nc43)[C@H](O)[C@@H]2O)ccc1O	-25%	4%
CC[C@]12C(=O)N(C)C[C@H]([C@@H]3C(=O)N(C)C(=O)[C@@H]31)N2C(=O)c1ccc(F)cc1	-14%	4%
CC(=O)Nc1cccc(-c2ccnc3c2CC(C(=O)NCC2CCOCC2)O3)c1 (stereo not drawn)	-17%	-5%
CCCCN1C(=O)C(=O)NC[C@@H]1Cc1ccc(O)cc1	-17%	6%
CNc1cc(-c2ccc(O)cc2C)ncn1	20%	-8%
COc1ccccc1-c1cnc(C(O)c2c(C)cc(C)cc2C)[nH]1 (stereo not drawn)	-9%	-9%
COc1ccc(-c2csc(NC(C)c3nc4cc(Cl)c(Cl)cc4n3CCOCCO)n2)cc1 (stereo not drawn)	-22%	-9%

Later entries.
Molecule	StopGo reporter	RE007 growth inh
C[C@@H](O)C#Cc1ccc2c(c1)O[C@H](CN(C)C(=O)Nc1ccccc1)[C@@H](C)CN([C@@H](C)CO)S2(=O)=O	-15%	7%
Cc1cccc(C)c1-n1nnnc1C(CCc1ccccc1)N1CCN(C/C=C/c2ccccc2)CC1 (stereo not drawn)	-29%	3%
CC1CC(C)(C)CC2(C1)NC(=O)N(CC(=O)N1CCN(S(=O)(=O)c3cccc(Cl)c3Cl)CC1)C2=O (stereo not drawn)	-29%	-4%
CC(C)c1ccc(NC(=O)c2cc(-c3cc(F)ccc3OCC3CCCO3)n[nH]2)cc1 (stereo not drawn)	-17%	-7%
COc1ccccc1Cc1c(-c2ccc(OC)c(OC)c2)nc2cc(C)c(Br)c(C)n12	-10%	-10%
CC1(C(=O)NS(=O)(=O)c2ccccc2Cl)CCN1C(=O)CC1CCCCC1 (stereo not drawn)	6%	2%[18.4 µM]
O=[N+]([O-])c1ccc2cccnc2c1	16%	-8%
CCc1nc2ccc(C(=O)N3CCN(S(=O)(=O)CC)CC3)cn2c1N(CC)CCN(C)C	-7%	-3%
COc1cc2c(cc1OC)CN(C1CCCN(Cc3cccc(C(C)=O)c3)C1)CC2 (stereo not drawn)	-2%	2%
C[C@@H]1CN([C@@H](C)CO)S(=O)(=O)c2ccc(Br)cc2O[C@H]1CN(C)Cc1ccccc1F	u	12%
COc1ccc(C(=O)COC(=O)CCn2c(C)csc2=O)c(OC)c1	85%[activator]	-2%
C[S+](CC[C@H](N)C(=O)O)C[C@H]1O[C@@H](n2cnc3c(N)ncnc32)[C@H](O)[C@@H]1O (stereo partly drawn)	0%	68%
CNc1nc(NCCOc2ccccc2)c2sccc2n1	-14%	-21%
CCCNC(=O)N(C)C[C@@H]1Oc2ncc(-c3ccncc3)cc2C(=O)N([C@H](C)CO)C[C@@H]1C	-20%	-14%
Cc1cc(C(=O)N2CCC2(C)C(=O)O)c(C)o1 (stereo not drawn)	-12%	-10%[18.4 µM]
CCN1CCN(C(c2ccccc2)c2nnnn2C(C)(C)C)CC1 (stereo not drawn)	-20%	9%
CC(=O)Nc1ccc(NC(=O)c2ccc(-c3ccnn3C)c3ccoc23)cc1	-16%	2%
CCOC(=O)C1(C)CCCN(C(=O)c2ccc(C)c(F)c2)C1 (stereo not drawn)	3%	11%
Cc1noc(C)c1-c1ccc(C(=O)Nc2ccccc2)c2occc12	26%	-14%[18.4 µM]
Cc1ccc(Cc2c(-c3ccc(Cl)cc3)nc3ccc(Br)cn23)cc1	35%[activator]	-11%
COC(=O)c1ccc2nc(-c3ccc(OC)c(OC)c3)c(Cc3ccc(OC)cc3C)n2c1	-8%	-14%
CC[C@H]1O[C@H](C)CC2=C1C(=O)OC(C)(C)O2	-11%	6%
C[C@H]1CN([C@@H](C)CO)C(=O)CCCn2nncc2CO[C@H]1CN(C)C(=O)Oc1ccc2ccccc2c1	-26%	11%
COC(=O)c1cn(C)c2ccc(S(=O)(=O)N(C)C3CCCCC3)cc2c1=O	2%	-14%
COC(=O)c1ccc(SCc2ccccc2)nc1	38%[activator]	-15%
CCCNC(=O)C1(C)CCN(Cc2cc(C)n(C)n2)C1 (stereo not drawn)	-12%	3%
N#Cc1ccc(NC(=S)N2CCC3CC2c2cc(-c4ccc5c(c4)OCO5)ccc23)cc1 (stereo not drawn)	3%	22%
CCOC(=O)C1=C(C)N(CCCC(=O)O)C(=O)NC1c1ccccc1Cl (stereo not drawn)	-11%	1%
COC(=O)c1ccc(Cn2c(C)c(C(=O)NCc3cccc([N+](=O)[O-])c3)sc2=O)o1	-28%	16%[18.4 µM]
CO[C@H]1C=C2CCN(C)[C@H]2C2c3cc4c(cc3C(=O)O[C@@H]21)OCO4 (stereo partly drawn)	12%	1%[18.4 µM]
C=CCNc1nc(-c2sc(NC(=O)C(C)(C)C)nc2C)c(-n2cc(-c3ccccc3)nn2)s1	-22%	3%
COCCNc1nc(Nc2ccccc2Cl)c2sccc2n1	u	-27%
COCOc1ccc(-c2cc(=O)c3c(OCOC)cc(OCOC)cc3o2)cc1	24%	-4%
CCOC(=O)[C@]12CCC=C1N(Cc1ccco1)C(=O)[C@H](CC(=O)N1CCSCC1)C2	-4%	19%
COc1ccc(C(C)(NC(C)=O)c2nc(-c3cccc(C(=O)O)c3)cs2)cc1 (stereo not drawn)	9%	24%
CCOC(=O)C1(C)CCN1C(=O)c1ccc2c(c1)CCO2 (stereo not drawn)	0%	-8%
CCn1cc(/C=C(\NC(=O)c2ccccc2)C(=O)NCCCn2ccnc2)c2ccccc21	48%[activator]	-2%
COc1ccc(-c2csc(NC(CO)c3nc4ccccc4n3CCOCCO)n2)cc1 (stereo not drawn)	37%[activator]	-3%
COCCNc1nc(NCCNC(C)=O)c2sc(-c3ccccc3)cc2n1	-11%	-12%
O=C(CCCCCN1C(=O)c2cccc([N+](=O)[O-])c2C1=O)NCCc1ccccc1	-10%	-12%
O=C1NC[C@@H](CCCCN2C[C@H](Cc3ccc(O)cc3)N(Cc3ccccc3)C(=O)C2=O)N(CCc2ccc(O)cc2)C1=O	-19%	-18%
CCCC(=O)N1CCCC1(C)C(=O)NCCc1ccccn1 (stereo not drawn)	-9%	2%[18.4 µM]
COC(=O)C1=C(c2cc3ccccc3o2)C[C@@H]2CC[C@H]1N2C(=O)NCc1ccccc1	-19%	4%
Cc1cccc(NC(=O)c2ncn3c2C(=O)NC[C@H]3C)c1	-19%	3%
CCOC1=C2CN(S(=O)(=O)c3ccc(C)cc3)[C@@H](c3ccccc3)C[C@H]2[C@H]2C(=O)N(c3ccccc3)C(=O)[C@H]2C1	-18%	-9%
O=C(NCc1ccccc1Cl)[C@H]1CCCN1C(=O)[C@H]1CCCN1C(=O)c1ccccc1	-13%	1%

Retrieved by structure from the entries so far, 3 records:
Molecule	StopGo reporter	RE007 growth inh
Cc1cccc(NC(=O)c2ncn3c2C(=O)NC[C@H]3C)c1	-19%	3%
O=C(NCc1ccccc1Cl)[C@H]1CCCN1C(=O)[C@H]1CCCN1C(=O)c1ccccc1	-13%	1%
CCOC(=O)C1(C)CCN1C(=O)c1ccc2c(c1)CCO2 (stereo not drawn)	0%	-8%

Source: PubChem (National Center for Advancing Translational Sciences (NCATS))

A portion of the library (hit frequency here may not be typical).
